Screens (PubChem BioAssay)
HSF1 inhib: HSF1 inhibitors in luciferase reporter cells, primary screen, cell-based, NIH3T3, luminescence. NIH3T3-HGL HSE-luciferase, MG132-induced, luminescence 8 h; stronger effect = lower value. activity change, negative = inhibition, % at 7.5 µM (by protocol). 300,000 compounds, 0.77% hits. AID 2098, 2009;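 active = more than half of replicate wells show activity change below -50%, luminescence cut by over half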;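 also: luciferase reports HSF-1 transcriptional activity via heat shock element; 0% = median of DMSO wells and -100% = zero luminescence signal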
KLF5 inhibitor: KLF5 expression inhibitors, primary screen, DLD-1 cells, luminescence | inhibition, % at 5 µM | 290,000 compounds, 0.23% hits | DLD-1 KLF5 promoter-luciferase reporter;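 active = inhibition above a per-plate limit of that plate's mean compound inhibition plus 3 SD, cut at about 60% in these data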;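 also: 0% = DMSO wells and 100% = LY294002 at 200 µM; higher means less KLF5 promoter-driven luciferase light; inactives centre near -14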
IEC-6 tox: cytotoxicity in IEC-6 intestinal epithelial cells, primary screen, cytotoxicity control for KLF5 inhibitor project, cell-based, luminescence. inhibition, % at 5 µM. 290,000 compounds, 0.78% hits. IEC-6 cytotoxicity, luminescence viability; in the data active = inhibition above about 22%;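 also: 0% = plate median of test compound wells and 100% = cytotoxic reference compound wells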
Platelet DG rel: inhibitors of platelet dense granule secretion, primary screen, cell-based, MLPCN, human platelets | inhibition, %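 (compounds screened at 7.5 µM in platelet-rich plasma)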 | human platelet-rich plasma, SFLLRN dense granule ATP release, luminescence | 300,000 compounds, 0.22% hits;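 active = mean replicate score, as percent of positive control, at or above 50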
HSP90 refold inh: HSP90 inhibitors, primary screen, cell lysate, luminescence; AID 1789, 2009; Rabbit reticulocyte lysate, luciferase refolding luminescence, 3 h; inhibition, % at 5.6 µM; Heat shock protein HSP 90 (rabbit reticulocyte lysate; luciferase refolding); 290,000 compounds, 0.91% hits;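 active = inhibition above the screen-wide mean plus 3 SD, computed separately per campaign, cut at about 16% in these data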;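 also: 0% = DMSO wells and 100% = 60 µM geldanamycin wells; inhibitors lower the luminescence because luciferase stays unfolded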
HSF1 activator: HSF-1 activators, primary screen, NIH3T3-HGL cells, MG132 stress, luminescence, single point; NIH3T3-HGL HSF-1 luciferase reporter, 8 h; 100% = twice DMSO control signal; activation, % at 9 µM; 300,000 compounds, 1.7% hits;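 active = mean replicate activation of at least 50% with a set share of replicates each reaching 50%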;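 also: 0% = median of the neutral control wells and 100% = twice that signal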
aSyn 5UTR inh: MLPCN primary screen, SNCA 5' untranslated region; inhibition, % (tested at 7.5 µM); 300,000 compounds, 0.82% hits; alpha-synuclein 5'UTR reporter, inhibitor activity; in the data active = inhibition above about 60%;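 also: H4 neuroglioblastoma cells stably carrying SNCA 5'UTR luciferase fusion; 0% = DMSO wells and 100% = positive control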
AI-2 QS modul: Vibrio harveyi AI-2 quorum sensing modulators, primary screen, JMH597 strain, luminescence/OD600 ratio; Vibrio harveyi JMH597 AI-2 luminescence/OD600 ratio, 9 h; stronger effect = lower value; strain lacks LuxN and CqsS sensors; 0 = neutral-control median; activity change, % at 7.5 µM; 300,000 compounds, 0.4% hits; AID 2094, 2009; in the data active = activity change below about -75%, passing the limit was not always enough;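 also: luminescence divided by OD600 gain over 9 h not by final OD600 alone; inactives centre near 13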
SKKanGAS inh: S. pyogenes SKKanGAS growth inhibitors in kanamycin, primary screen, streptokinase expression inhibitor project, SKKanGAS strain, BacTiter-Glo luminescence; 6 h; inhibition, % at 7.5 µM; 300,000 compounds, 1.3% hits; AID 1662, 2009;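 active = mean replicate score, as percent of positive control median, at least 50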;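 also: strain carries kanamycin resistance gene driven by streptokinase promoter and grows in 40 µg/ml kanamycin; loss of luminescence reflects streptokinase promoter inhibition or plain growth inhibition; 0% = median of DMSO wells and 100% = positive control at its reference dose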
An asterisk follows results filed as active; . = no result given; & = joins results of further samples. Only part of the results is shown, so the mix of outcomes need not match the whole.

SMILES	HSF1 inhib	KLF5 inhibitor	IEC-6 tox	Platelet DG rel	HSP90 refold inh	HSF1 activator	aSyn 5UTR inh	AI-2 QS modul	SKKanGAS inh
Cn1c(=O)c2c(nc(NCC(O)CO)n2CCc2ccccc2)n(C)c1=O (stereo unspecified)	-8.3	8.8	-4.8	2.7	-2.4	-11.5	11.6	-1.5	1.9
CN1CCN(CC/C=C2/c3ccccc3Sc3ccc(S(=O)(=O)N(C)C)cc32)CC1	7.2	-26.3	-2.5	-3.7	-0.9	14.9	-97.5	9.7	-2.3
CCOC(=O)c1c(C)n(C)c2ccc(OC)c(NC(=O)CN3CCN(Cc4ccccc4)CC3)c12	-4.7	8.6	-6.5	14.1	-0.3	4.5	23.6	-2.7	3.8
CC(C)(C)NC(=O)/C=N/O	7.9	-10.9	-0.3	-10.6	-8.3	8.4	-0.9	-8.5	-18.6
O=C(CCC(=O)CCN1CCCCC1)CCN1CCCCC1	-6.8	-25.6	1.3	0.7	1.3	4.9	-3.7	3.7	0.6
CC(=O)Oc1cccc2c1C(=O)c1c(OC(C)=O)cc(C(=O)O)cc1C2=O	-4.6	-14.9	-4.5	0.6	5.5	-9.2	-3.1	27.0	-0.6
Cc1ccc2nc(C(F)(F)F)c(C#N)c(N)c2c1	-13.7	-8.4	-8.9	3.8	2.7	-12.4	7.5	11.5	1.1
COC(=O)c1cc(Br)c(=O)n(-c2cc(C)on2)c1	-4.7	7.0	1.3	-2.5	0.9	-0.2	1.6	20.9	2.5
CCOC(=O)N1CCN(C(=O)c2cn(CC)c3cc(N4CCN(C)CC4)c(F)cc3c2=O)CC1	-0.6	-2.9	-1.3	8.5	1.3	-17.6	6.6	-5.1	-4.0
Cc1ccc(SCc2nnc(N)s2)cc1	2.2	-27.8	-0.4	1.6	-0.2	-10.3	-10.4	21.0	-1.5
CCOC(=O)C1CCN(c2nc3ccccc3nc2C(C#N)C(=O)OCCOC)CC1 (stereo unspecified)	3.0	-13.6	-1.8	-1.0	0.1	0.9	11.4	16.3	6.2
Cc1cc(C)n(CC(=O)c2ccccc2)c(=O)c1C#N	-1.4	-24.9	-1.5	1.1	-2.9	-0.2	-9.6	28.6	4.3
COc1cccc(Cn2c(OCC3CCCO3)nc3c2c(=O)n(C)c(=O)n3C)c1 (stereo unspecified)	.	-48.2	0.4	0.4	-2.6	.	4.8	37.7	-0.2
c1cc2c(cc1C1=Nn3c(nnc3C3CCCCC3)SC1)OCO2	-16.4	-10.5	12.7	4.9	11.2	-5.4	27.6	9.4	7.2
CC[N+](CC)(CC)CC(=O)Nc1c(C)cccc1C	1.4	.	.	-1.6	.	1.6	26.9	4.3	-5.5
Cc1cc(O)c(-c2cc(O)c(C)cc2O)cc1O	8.7	-25.4	5.3	-8.3	1.6	0.0	23.3	8.5	5.9
Cc1cccn2c(=O)c3cc(C(N)=S)c(=N)n(CCCOC(C)C)c3nc12	8.6	-4.3	-11.4	-1.9	0.8	7.9	12.8	8.4	-2.6
COc1ccc2cc1Oc1ccc(cc1)C[C@H]1c3cc(c(OC)cc3CCN1C)Oc1c(OC)c(OC)cc3c1[C@H](C2)N(C)CC3	-0.3	.	.	-1.9	.	7.5	36.0	14.9	-7.9
COCCOC(=O)C1=C(C)NC(SCC(=O)NC(C)(C)C)=C(C#N)C1c1ccco1 (stereo unspecified)	11.6	-8.3	-1.6	-5.7	-3.6	14.5	1.8	-12.7	3.3
COC(=O)C/C=C/[C@@H](C)[C@@H](/C=N/O[C@@H](C)c1cn([C@H](CO)Cc2ccccc2)nn1)NS(=O)(=O)c1ccc(C)cc1	0.7	4.5	-2.1	2.6	2.8	1.9	12.1	22.0	0.2
CCSc1nc(N)c2c3c(sc2n1)CCC3	10.0	-23.1	-1.3	-1.4	-0.9	5.5	-89.4	-1.3	-13.6
CC1(C)Cc2c(C#N)c(OCC(=O)c3ccc(Cl)cc3)nc(-c3ccoc3)c2CO1	3.6	1.3	0.4	0.2	-4.2	-2.0	27.4	13.0	3.9
CCOc1ccc(C2C=C(c3ccccc3)Nc3ncnn32)cc1 (stereo unspecified)	-1.6	-19.5	-2.0	3.5	-1.2	-3.5	3.1	10.1	6.1
CCC1SC(N)=NC1=O (stereo unspecified)	-4.9	-12.4	2.7	6.5	-1.2	-13.7	11.1	0.9	-1.9
COc1ccc(N2CC(=O)N(c3ccc(OC)c(OC)c3)CC2=O)cc1OC	-5.4	-14.1	-2.6	9.2	4.3	11.6	8.8	2.8	2.9

6 entries out of the list, ordered by molecular weight, high to low.
SMILES	HSF1 inhib	KLF5 inhibitor	IEC-6 tox	Platelet DG rel	HSP90 refold inh	HSF1 activator	aSyn 5UTR inh	AI-2 QS modul	SKKanGAS inh
COc1ccc2cc1Oc1ccc(cc1)C[C@H]1c3cc(c(OC)cc3CCN1C)Oc1c(OC)c(OC)cc3c1[C@H](C2)N(C)CC3	-0.3	.	.	-1.9	.	7.5	36.0	14.9	-7.9
Cc1cccn2c(=O)c3cc(C(N)=S)c(=N)n(CCCOC(C)C)c3nc12	8.6	-4.3	-11.4	-1.9	0.8	7.9	12.8	8.4	-2.6
COC(=O)c1cc(Br)c(=O)n(-c2cc(C)on2)c1	-4.7	7.0	1.3	-2.5	0.9	-0.2	1.6	20.9	2.5
Cc1ccc2nc(C(F)(F)F)c(C#N)c(N)c2c1	-13.7	-8.4	-8.9	3.8	2.7	-12.4	7.5	11.5	1.1
Cc1cc(O)c(-c2cc(O)c(C)cc2O)cc1O	8.7	-25.4	5.3	-8.3	1.6	0.0	23.3	8.5	5.9
CCC1SC(N)=NC1=O (stereo unspecified)	-4.9	-12.4	2.7	6.5	-1.2	-13.7	11.1	0.9	-1.9

Other structures follow.
SMILES	HSF1 inhib	KLF5 inhibitor	IEC-6 tox	Platelet DG rel	HSP90 refold inh	HSF1 activator	aSyn 5UTR inh	AI-2 QS modul	SKKanGAS inh
Cc1nnc2n(-c3ccccc3)c(=O)c3c4c(sc3n12)CC(C)CC4 (stereo unspecified)	1.6	-17.6	5.6	-8.7	1.7	0.6	3.5	14.7	-8.3
O=C(O)C1CC(=O)N(Cc2cccs2)C1 (stereo unspecified)	-11.5	-11.1	3.1	0.4	1.4	0.2	3.7	-2.3	5.7
CN(C)c1nc(OCCNC(=O)Nc2ccccc2)nc(N(C)C)n1	11.9	-3.6	1.9	-3.4	4.0	50.0	-6.8	11.4	-1.8
Cc1cc(=O)oc(C)c1C(=O)NCC(C)C	-3.3	-9.6	-0.9	-45.9	4.6	-1.8	-1.4	7.4	-3.8
Nc1nonc1OCCc1ccccc1	-0.3	-35.4	-5.2	-22.6	5.7	-7.3	-17.7	2.8	5.4
O=C(Oc1oc(-c2ccco2)nc1C=Nc1ccccc1)c1ccoc1	-81.3*	-4.5	-2.1	1.7	-4.0	-85.9	-22.2	6.0	3.6
Fc1cnc(N2CCOCC2)nc1NCc1ccccc1	-5.2	-28.3	-3.7	12.5	0.2	-13.9	6.1	-3.8	2.9
O=c1[nH]c(SCc2ccccc2[N+](=O)[O-])nc2nc[nH]c12	3.5	-0.9	0.1	2.4	1.8	27.0	5.4	-4.2	-3.7
COC(=O)c1ccc(OC(=O)c2ccc(OC)c(OC)c2)c(OC)c1	0.2	8.6	1.9	-4.2	-3.3	15.7	18.0	7.0	-3.7
Cc1[nH]c(=O)[nH]c(=O)c1S(=O)(=O)N1CCCC1	0.0	-7.6	0.2	-3.8	-1.2	9.7	5.3	9.8	3.9
c1ccc(-c2nnc3n2N=C(c2ccc4c(c2)OCO4)CS3)nc1	6.0	-16.4	0.5	0.1	2.5	14.1	14.3	65.5	-15.7
O=C(Cc1ccccc1)Nc1cccc(-c2nnc(-c3ccco3)o2)c1	-20.4	-19.1	11.5	6.4	3.9	-36.6	-40.4	25.9	-1.6
COC(=O)[C@H]1[C@H]2C[C@H]3c4[nH]c5ccccc5c4CCN3C[C@@H]2CC[C@@H]1O	-12.3&-1.7	.	.	-0.5&-0.5	.	-3.4&10.3	-13.6&-3.8	-3.2&16.7	-0.2&-1.7
COc1cccc(OC)c1C(=O)N1CCN(S(=O)(=O)c2ccc(C)cc2)CC1	12.3	9.7	-0.3	13.7	-1.7	2.2	5.7	14.0	7.4
CCCn1c(=O)[nH]c(=O)c2[nH]cnc21	-12.8	3.0	7.7	-9.5	0.3	-8.2	10.7	19.6	16.8
COc1cccc(/C(O)=C2/C(=O)C(=O)N(CCN(C)C)C2c2ccc(Br)cc2)c1 (stereo unspecified)	3.4	-27.9	4.0	-1.4	-0.9	21.4	-21.3	6.3	2.8
CC(C)CCNC(=O)[C@H](CC(C)C)NC(=O)[C@H]1O[C@@H]1C(=O)O	-1.2	-24.1	5.7	-3.3	10.1	0.4	-2.7	7.6	0.3
CC(=O)OC[C@H]1O[C@@H](O/N=C/[C@@H](C)[C@H](OCc2ccccc2)C(C)C)[C@H](OC(C)=O)[C@@H](OC(C)=O)[C@@H]1OC(C)=O	-0.4	6.4	4.1	-3.6	2.3	-5.2	13.7	13.4	13.9
COc1ccc(Nc2cc(C)nc3ccccc23)cc1	-2.5	4.5	19.7	-8.0	3.0	-2.3	19.6	12.6	.
COC(=O)CC1=NC(=O)CS1	-3.0	-9.5	1.6	7.0	0.5	-3.1	-13.2	28.4	3.4
Cc1ccc(-c2nn(CCC(=O)NCC3CCCO3)c(=O)c3ccccc23)cc1 (stereo unspecified)	10.8	0.2	-1.3	12.3	0.9	-8.4	3.5	-1.6	-0.8
O=c1[nH]c2ccccc2n1CCCN1CCN(C(c2ccccc2)c2ccccc2)CC1	0.3	-11.3	-5.5	1.4	6.5	-14.7	11.1	-5.0	3.5
CCn1nc(NC(=O)c2ccco2)c2cc3ccccc3nc21	-0.8	5.3	0.2	13.0	0.0	8.3	-20.8	2.4	0.2
O=C(N(c1ccccc1)c1ccccc1)n1ccnc1	-2.9	-11.1	-0.5	2.8	-1.3	-0.9	14.4	13.1	-3.7
Cc1c(/C(O)=C2/C(=O)C(=O)N(CCN3CCOCC3)C2c2cccnc2)cnn1-c1ccccc1 (stereo unspecified)	-0.8	-5.9	-4.2	7.7	-6.5	-17.9	9.8	13.3	2.5
O=C(O)CN(c1ccccc1)C1SC(=O)NC1=O (stereo unspecified)	-10.9	-24.9	-0.7	1.6	1.0	6.9	-26.7	35.9	-5.1
Cc1ccc(-c2nnc(-c3ccccc3)o2)cc1Br	15.8	-168.0	2.3	-1.9	-1.1	16.6	-149.0	26.1	-1.8
CC(C)c1[nH]c(=O)c(C#N)c2c1CSC(C)(C)C2	0.1	-0.4	4.8	-1.2	1.9	19.4	26.3	.	3.1
CCOc1ccc2nc(NC(NC(C)=O)(C(=O)OC)C(F)(F)F)sc2c1 (stereo unspecified)	-0.4	-32.1	1.3	2.9	-0.5	4.5	-1.6	6.6	5.4
